PD-1 reversal: activators reversing PD-1 mediated T-cell inhibition; primary human CD4 T cells, PD-L1 beads, CellTiter-Glo 96 h; activation, % (concentration not given with the values); 29,000 tested, under 10 active; AID 2316;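 active = replicate mean of 50% or more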;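 note: 0% = median vehicle wells and 100% = positive control; 100 nL library stock added to about 50 µL; numbers are from one replicate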
MITF inh: blocks MITF activity | TRPM1 promoter luciferase, luminescence, 24 h | inhibition, % (test concentration not listed) | hit rate 0.28% among 37,000 | AID 2240;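 active = most replicates at 85% or more, or half of them and the mean; inconclusive = half reach 85% but not the mean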;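 note: human melanocyte line stably carrying TRPM1 promoter luciferase reporter; 0% = vehicle wells and 100% = a positive control; the first replicate is given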
YB-1 expression: YB-1 expression inhibition; delta delta Cp (YB-1 minus CDIP) (test concentration not listed); AID 434959; U2OS, qRT-PCR YB-1 vs CDIP delta delta Cp, 16 h; active compounds read high; zero = DMSO, each unit about twofold; hit rate 0.37% among 30,000;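 active = delta delta Cp rounded down to an integer at or above 3, about 3 SD of DMSO wells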;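 note: higher means less YB-1 transcript or more CDIP transcript relative to DMSO; stock transfer was 100 nL into about 100 µL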
Hedgehog inh: blocks Sonic Hedgehog signaling. Shh-LIGHT2 Gli-luciferase reporter, 30 h. hit rate 2.1% among 22,000. inhibition, % (test concentration not listed);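 active = replicate mean of 65% or more; inconclusive = mean lower but half the replicates past it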;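 note: pathway switched on by Shh-conditioned medium diluted 1 in 25 in low serum; 100 nL library stock added to about 40 µL; 0% = median of neutral wells and 100% = positive control level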
Starred values were filed as active, the others as inactive. An excerpt; the hit share may differ from the screen's.

What do the screens show for `C[C@@H]1CN([C@H](C)CO)C(=O)Cc2cc(NC(=O)Cc3cn(C)c4ccccc34)ccc2O[C@@H]1CN(C)Cc1ccc(-c2ccccc2)cc1`?
PD-1 reversal: -5.4; MITF inh: 26; YB-1 expression: -0.12; Hedgehog inh: 1

What do the screens show for `C[C@H](CO)N1C[C@H](C)[C@@H](CN(C)Cc2ccc(-c3ccccc3)cc2)Oc2c(NC(=O)Nc3ccc4c(c3)OCO4)cccc2C1=O`?
MITF inh: 11; YB-1 expression: 0.52; Hedgehog inh: -56

What do the screens show for `COc1ccc(NC(=O)N(C)C[C@H]2Oc3c(NS(C)(=O)=O)cccc3C(=O)N([C@H](C)CO)C[C@@H]2C)cc1`?
MITF inh: -8; YB-1 expression: 0.14; Hedgehog inh: 17

What do the screens show for `COc1ccc(NC(=O)COc2ccc(Br)cc2C)c([N+](=O)[O-])c1`?
PD-1 reversal: -4.9; MITF inh: 0

Results for Cc1c(Cl)cccc1NC(=O)CC1NCCNC1=O (stereo unspecified) ?
PD-1 reversal: 2.3; MITF inh: -10

What do the screens show for `CC(C)(C)c1ccc(-c2n[nH]c(S(C)(=O)=O)c2C#N)cc1`?
PD-1 reversal: -0.9; MITF inh: -9; YB-1 expression: -1

Results for Cc1ccc(S(=O)(=O)N(C)C[C@@H]2Oc3c(NS(=O)(=O)c4ccc(F)cc4)cccc3C(=O)N([C@H](C)CO)C[C@@H]2C)cc1 ?
PD-1 reversal: 1.5; MITF inh: 8; YB-1 expression: -0.43; Hedgehog inh: 33

How did Cc1ccc(S(=O)(=O)N(C)C[C@H]2OCCCC[C@@H](C)Oc3ccc(NC(=O)Nc4ccc(C(F)(F)F)cc4)cc3C(=O)N([C@H](C)CO)C[C@@H]2C)cc1 do in these assays?
MITF inh: -2; YB-1 expression: 0.086; Hedgehog inh: 15

How did CCOC(=O)c1c(NC(=O)CSc2nnc(C)s2)sc2c1CCN(C)C2 do in these assays?
PD-1 reversal: 0.0; MITF inh: 3

What do the screens show for `Cc1noc(C)c1NC(=O)N(C)C[C@H]1Oc2ccc(NS(=O)(=O)c3cn(C)cn3)cc2C(=O)N([C@@H](C)CO)C[C@H]1C`?
PD-1 reversal: 2.2; MITF inh: 3; YB-1 expression: 0.03; Hedgehog inh: -31

Results for COc1ccc(S(=O)(=O)N(C)C[C@@H]2Oc3c(NS(=O)(=O)c4cccs4)cccc3C(=O)N([C@@H](C)CO)C[C@@H]2C)cc1 ?
PD-1 reversal: 0.1; MITF inh: -7; YB-1 expression: -0.54; Hedgehog inh: 21

Results for Cc1ccc(-c2nc(S(=O)(=O)c3ccc(Br)cc3)c(SCC(N)=O)o2)cc1 ?
PD-1 reversal: -1.1; MITF inh: 8

What do the screens show for `C[C@@H]1CN([C@@H](C)CO)C(=O)c2cc(NC(=O)Nc3ccc4c(c3)OCO4)ccc2O[C@H]1CN(C)S(=O)(=O)c1cn(C)cn1`?
PD-1 reversal: 0.3; MITF inh: -17; YB-1 expression: 0.13; Hedgehog inh: 21

What do the screens show for `CCc1ccc(OCC(=O)Nc2ccc3oc(-c4ccc(OC)cc4)nc3c2)cc1`?
PD-1 reversal: -0.3; MITF inh: -1

Results for CC(C)NC(=O)N(C)C[C@@H]1Oc2ccc(NS(=O)(=O)c3cccs3)cc2CC(=O)N([C@H](C)CO)C[C@H]1C ?
PD-1 reversal: 0.9; MITF inh: -8; YB-1 expression: -0.098; Hedgehog inh: -21

Results for COc1ccc(OCCC(=O)NN)cc1 ?
PD-1 reversal: 1.5; MITF inh: 7; YB-1 expression: 0.29; Hedgehog inh: -23

How did COc1ccc(NC(=O)NCc2cccnc2)cc1OC do in these assays?
PD-1 reversal: 0.2; MITF inh: 2

What do the screens show for `Cc1ccc(S(=O)(=O)CC(CN2CCOCC2)N2CCOCC2)cc1` (stereo unspecified)?
PD-1 reversal: -0.7; MITF inh: 4

Results for CCOC(=O)c1c(NC(=O)C(C)Oc2ccccc2)sc(C)c1C (stereo unspecified) ?
PD-1 reversal: -3.3; MITF inh: 4

What do the screens show for `C[C@@H]1CCCCO[C@H](CN(C)Cc2ccc(C(=O)Nc3ccccc3N)cc2)[C@@H](C)CN([C@H](C)CO)C(=O)c2cc(NS(=O)(=O)c3ccc(Cl)cc3)ccc2O1`?
PD-1 reversal: 0.0; MITF inh: 41; YB-1 expression: 0.046

How did C[C@@H]1CN([C@H](C)CO)C(=O)Cc2cc(NS(C)(=O)=O)ccc2O[C@@H]1CN(C)C(=O)Nc1ccccc1 do in these assays?
PD-1 reversal: 1.4; MITF inh: 3; YB-1 expression: 0.064; Hedgehog inh: -35

Results for Cc1cc(NC(=O)C2CC=CCC2C(=O)O)ccc1NC(=O)c1ccccc1 (stereo unspecified) ?
PD-1 reversal: 2.8; MITF inh: -4

Results for COc1ccc(NC(=O)Nc2cccc3c2O[C@H](CN(C)CC2CCCCC2)[C@H](C)CN([C@H](C)CO)C3=O)cc1 ?
PD-1 reversal: 1.6; MITF inh: -26; YB-1 expression: 1.3; Hedgehog inh: -27

What do the screens show for `CNC[C@H]1Oc2c(NC(=O)c3nc4ccccc4s3)cccc2C(=O)N([C@@H](C)CO)C[C@H]1C`?
PD-1 reversal: -2.7; MITF inh: 44; YB-1 expression: 0.024; Hedgehog inh: 9

What do the screens show for `Cc1cccc(NC(=S)N2CCCCC2C)c1` (stereo unspecified)?
PD-1 reversal: -3.3; MITF inh: 0; YB-1 expression: -0.59; Hedgehog inh: 2

What do the screens show for `CCc1nc(SCS(=O)(=O)c2ccc(C)cc2)c(C#N)c2c1CCCC2`?
PD-1 reversal: -0.9; MITF inh: 0; YB-1 expression: -0.54; Hedgehog inh: -4

What do the screens show for `COCc1cc(=O)[nH]c2c1c(-c1cccs1)nn2C`?
PD-1 reversal: 0.4; MITF inh: -25; YB-1 expression: 0.39

How did COc1ccc(C(=O)CCC(=O)Nc2cccnc2)cc1OC do in these assays?
PD-1 reversal: 1.6; MITF inh: 11

How did CC(=O)O[C@@H]1CC[C@@]2(C)C(CC[C@@H](C)[C@]23Cc2c(O)cc4c(c2O3)CNC4=O)C1(C)C (stereo partly specified) do in these assays?
PD-1 reversal: 1.3; MITF inh: -6; YB-1 expression: -0.063; Hedgehog inh: -32

How did COc1ccc(S(=O)(=O)Nc2ccc3c(c2)C(=O)N([C@H](C)CO)C[C@H](C)[C@@H](CN(C)C(=O)c2ccncc2)OCCCC[C@@H](C)O3)cc1 do in these assays?
PD-1 reversal: 0.1; MITF inh: -5; YB-1 expression: -0.072; Hedgehog inh: 9

How did C[C@H]1CN([C@@H](C)CO)C(=O)Cc2cc(NC(=O)Cc3ccccc3)ccc2O[C@H]1CN(C)S(=O)(=O)c1cn(C)cn1 do in these assays?
PD-1 reversal: 0.8; MITF inh: 1; YB-1 expression: 0.73; Hedgehog inh: -36

What do the screens show for `Cc1noc(C)c1NC(=O)Nc1ccc2c(c1)CC(=O)N([C@H](C)CO)C[C@H](C)[C@H](CN(C)Cc1ccccc1)O2`?
PD-1 reversal: 0.1; MITF inh: -14; YB-1 expression: 0.6; Hedgehog inh: -4

What do the screens show for `C[C@H](CO)N1C[C@H](C)[C@@H](CN(C)Cc2ccc(C(=O)O)cc2)Oc2c(NC(=O)NC3CCCCC3)cccc2C1=O`?
PD-1 reversal: 0.8; MITF inh: -7; YB-1 expression: 0.1; Hedgehog inh: -15

What do the screens show for `CC(=O)Nc1ccc(N=Cc2ccc(N3CCOCC3)cc2)cc1`?
PD-1 reversal: 0.8; MITF inh: 1; YB-1 expression: -0.067; Hedgehog inh: 9

Results for C[C@@H]1CN([C@H](C)CO)C(=O)c2cc(NC(=O)CCC(F)(F)F)ccc2O[C@@H]1CN(C)S(=O)(=O)c1ccc(F)cc1 ?
PD-1 reversal: 0.7; MITF inh: 4; YB-1 expression: -0.056

How did COc1ccc(CN(C)C[C@@H]2Oc3c(NC(=O)C4CC4)cccc3C(=O)N([C@@H](C)CO)C[C@H]2C)cc1 do in these assays?
PD-1 reversal: -1.8; MITF inh: -9; YB-1 expression: -0.21; Hedgehog inh: -48

What do the screens show for `Cc1ccc(S(=O)(=O)Nc2ccc3c(c2)C(=O)N([C@H](C)CO)C[C@H](C)[C@@H](CN(C)Cc2ccc(C(=O)O)cc2)OCCCC[C@@H](C)O3)cc1`?
PD-1 reversal: 4.2; MITF inh: -7; YB-1 expression: 0.2; Hedgehog inh: -15

Results for COc1cc2c(cc1OC)Cc1cc(OC)c(OC)cc1Cc1cc(OC)c(OC)cc1C2 ?
MITF inh: 4; YB-1 expression: -0.096; Hedgehog inh: -4

How did C[C@H](CO)N1C[C@H](C)[C@H](CN(C)Cc2ccc(Cl)c(Cl)c2)Oc2ccc(NC(=O)CCN3CCOCC3)cc2CC1=O do in these assays?
PD-1 reversal: -0.1; MITF inh: -9; YB-1 expression: 0.015; Hedgehog inh: 29

How did Cc1ccc(S(=O)(=O)Nc2ccc3c(c2)C(=O)N([C@@H](C)CO)C[C@@H](C)[C@@H](CN(C)Cc2ccc4c(c2)OCO4)O3)cc1 do in these assays?
PD-1 reversal: 0.3; MITF inh: -5; YB-1 expression: -0.15; Hedgehog inh: 24

Results for C[C@@H]1CCCCO[C@@H](CN(C)C(=O)Nc2cccc3ccccc23)[C@@H](C)CN([C@H](C)CO)C(=O)c2cc(NC(=O)CCCCCC(=O)Nc3ccccc3N)ccc2O1 ?
PD-1 reversal: 0.3; MITF inh: 5; YB-1 expression: -0.093

Results for CC(C)n1cnc2c(Nc3cccc(Cl)c3)nc(NCCO)nc21 ?
PD-1 reversal: 7.2; MITF inh: 11; YB-1 expression: -0.07; Hedgehog inh: 75*

How did C[C@@H]1CCCCO[C@H](CN(C)S(=O)(=O)c2cccs2)[C@@H](C)CN([C@H](C)CO)C(=O)c2cc(NS(=O)(=O)c3cn(C)cn3)ccc2O1 do in these assays?
PD-1 reversal: 0.6; MITF inh: 2; YB-1 expression: -0.031; Hedgehog inh: 25

How did COc1ccc(S(=O)(=O)Nc2ccc3c(c2)CC(=O)N([C@H](C)CO)C[C@@H](C)[C@H](CN(C)CC2CC2)O3)cc1 do in these assays?
PD-1 reversal: 1.2; MITF inh: -6; YB-1 expression: 3.2*; Hedgehog inh: -23

What do the screens show for `C[C@@H]1CN([C@@H](C)CO)C(=O)c2cc(NC(=O)Cc3ccccc3)ccc2O[C@H]1CN(C)Cc1ccc(C(F)(F)F)cc1`?
PD-1 reversal: -0.5; MITF inh: 31; YB-1 expression: -0.67; Hedgehog inh: inconclusive

Results for COC(=O)[C@@H](O)[C@H]1[C@@]2(C)C[C@]3(O)C4[C@@H](O[C@]56CC(=O)O[C@@H](c7ccoc7)[C@@]5(C)CCC([C@]46O)[C@]13C)[C@H]2O (stereo partly specified) ?
YB-1 expression: -0.12; Hedgehog inh: 5

How did COC(=O)CNC(=O)c1cn(-c2ccccc2)nc1-c1ccc(OC)cc1 do in these assays?
PD-1 reversal: 0.3; MITF inh: -8

What do the screens show for `S=c1[nH]c2ccccc2s1`?
MITF inh: 17; YB-1 expression: 0.26; Hedgehog inh: -1

Results for Cc1noc(C)c1S(=O)(=O)N(C)C[C@H]1Oc2c(NC(=O)c3cnccn3)cccc2C(=O)N([C@@H](C)CO)C[C@H]1C ?
PD-1 reversal: 0.2; MITF inh: -7; YB-1 expression: 0.41; Hedgehog inh: 6

Results for Cc1noc(C)c1NC(=O)Nc1cccc2c1O[C@@H](CN(C)S(=O)(=O)c1ccc(F)cc1)[C@@H](C)CN([C@@H](C)CO)C2=O ?
PD-1 reversal: -0.7; MITF inh: -7; YB-1 expression: 0.59; Hedgehog inh: 5

Results for N=c1c2c3c(sc2ncn1Nc1ccccc1)CCC3 ?
PD-1 reversal: -1.6; MITF inh: 22; YB-1 expression: 0.38; Hedgehog inh: 14
